NS1 function inh – inhibitors of influenza NS1 protein function; 270,000 tested, 0.4% active; AID 2326; Potency, µM (series often up to 46.1 µM), for the others: top-dose activity, positive = more growth; S. cerevisiae slowed by influenza A NS1, growth recovery by OD600; active means well fitted rising curve with a large enough effect; inconclusive means small, poorly fitted or top-dose-only effect; inactive means no such curve, though single readings can be large or run the other way; also: nearly all actives have a fitted effect of over 50% in size
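OD600 was taken as the measure of yeast growth restored by compound in an NS1-expressing S. cerevisiae strain. Cells had been washed out of glucose medium and diluted 1:100 into galactose -URA medium, pH 6.0.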
Cruzain inh Det – inhibitors of Trypanosoma cruzi cruzain with detergent; P25779; purified cruzain, Z-FR-AMC fluorescence, 0.01% Triton; Potency, µM, for inactives: max response, negative = inhibition, actives largely listed as inhibitors; 200,000 tested, 0.43% active;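 also: plate controls were neutral wells for no effect and buffer without enzyme for full effect; nearly all actives have a fitted effect of over 40% in size; top concentration of the series not given in the record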
Target sequence (P25779 123-467 limits assumed): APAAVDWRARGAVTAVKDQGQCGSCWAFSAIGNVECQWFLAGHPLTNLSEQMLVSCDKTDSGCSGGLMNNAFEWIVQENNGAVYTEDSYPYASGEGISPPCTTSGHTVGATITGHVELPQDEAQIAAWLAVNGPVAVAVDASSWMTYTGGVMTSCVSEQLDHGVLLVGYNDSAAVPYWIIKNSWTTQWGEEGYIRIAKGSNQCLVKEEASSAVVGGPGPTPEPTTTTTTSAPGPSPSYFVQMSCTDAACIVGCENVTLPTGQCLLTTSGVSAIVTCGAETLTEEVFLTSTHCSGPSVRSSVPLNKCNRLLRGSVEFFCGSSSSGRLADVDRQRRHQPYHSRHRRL
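Enzyme 1.5 nM, Z-FR-AMC 2 uM, NaOAc 100 mM pH 5.5, DTT 5 mM, Triton X-100 0.01%; 15 min RT compound preincubation; kinetic ex360/em450, 60 s delta.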
Cruzain inh noDet – inhibitors of Trypanosoma cruzi cruzain without detergent | P25779 | purified cruzain, Z-FR-AMC fluorescence, no detergent | Potency, µM, inactives show max response, negative = inhibition, hits mostly inhibitors | 200,000 tested, 2.3% active | AID 1476;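 also: plate controls were enzyme without inhibitor for no effect and buffer without enzyme for full effect; nearly all actives have a fitted effect of over 40% in size; top concentration of the series not given in the record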
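Purified cruzain at 1.5 nM, pre-incubated 15 min with compound at room temperature in 100 mM sodium acetate pH 5.5, 5 mM DTT, 0.00005% Triton X-100. Reaction started with 2 uM Z-FR-AMC; AMC fluorescence increase over 60 s gives rate.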
MARV entry inh – inhibitors of Marburg virus binding or cell entry. Marburg virus pseudotyped entry inhibition, cell reporter; control for the full effect not named in the record; about a third of the inactives were read at about 46 µM. Potency, µM (highest dose often 37.8 µM), for inactives: at the highest dose activity change, negative = inhibition, most hits filed as inhibitors. 300,000 tested, 1.8% active. AID 540276; active = well fitted inhibition curve with a large enough effect; inconclusive = small, poorly fitted or top-dose-only effect, or effect the other way; inactive = flat fitted curve, though single readings scatter; tested in HEK293 cells; about a fifth of its hits are not listed in these tables; also: % is scaled to controls: 0 for no effect and ±100 for the full control effect; luciferase read-out
SARS PLP yeast – inhibitors of SARS-CoV papain-like protease in yeast; AID 485353; 330,000 tested, 0.19% active; S. cerevisiae expressing SARS-CoV PLpro, growth rescue; control for the full effect not named in the record; Potency, µM (doses to about 32.9 µM), inactives show top-dose activity, positive = growth rescue; active means well fitted rising curve with a large enough effect; inconclusive means small, poorly fitted or top-dose-only effect; inactive means no such curve, though single readings can be large or run the other way; also: 0% is about no effect; nearly all actives have a fitted effect of over 55% in size; growth read by luminescence after 48 h
RE007 growth inh – less growth of the S. pombe RE007 Vpr strain | AID 651644 | 360,000 tested, 0.21% active | Potency, µM (titrated, usually from 92.2 µM), for the others: at the highest dose activity change, negative = less growth | S. pombe RE007 Vpr strain, BacTiter-Glo ATP luminescence, 24 h; control for the full effect not named in the record; active = well fitted falling curve with a large enough effect; inconclusive = small, poorly fitted or top-dose-only effect; inactive = no such curve, though single readings can be large or run the other way;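 also: % is scaled to controls: 0 for no effect and ±100 for the full control effect; nearly all actives have a fitted effect of over 50% in size; the assay follows cell death caused by Vpr and the record does not say whether a fall means rescue or toxicity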
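Fission yeast RE007 carrying one integrated HIV-1 vpr copy, seeded at OD 0.01 in PMG+AL medium with 23 nL pinned compound. Grown 24 h at 30 degrees; viability read by BacTiter-Glo luminescence after 5 min.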
2A StopGo – lowers the luciferase signal of an FMDV 2A StopGo reporter | human cells with a luciferase reporter of 2A StopGo recoding; control for the full effect not named in the record | Potency, µM (top dose mostly 57.9 µM), for inactives: top-dose signal change, negative = less light | 410,000 tested, 1.2% active; active = well fitted falling curve with a large enough effect; inconclusive = small, poorly fitted or top-dose-only effect; inactive = no such curve, though single readings can be large or run the other way; tested in HEK293T cells; also: % is scaled to controls: 0 for no effect and ±100 for the full control effect; nearly all actives have a fitted effect of over 45% in size; luciferase light after 4 h
LASV entry inh – Lassa virus entry inhibition. Lassa virus pseudotype entry inhibition, cell reporter; control for the full effect not named in the record. Potency, µM (doses to about 37.9 µM), for the others: at the highest dose activity change, negative = inhibition, hits mostly inhibitors. 300,000 tested, 1.2% active. AID 540256; active means well fitted inhibition curve with a large enough effect; inconclusive means small, poorly fitted or top-dose-only effect, or effect the other way; inactive means flat fitted curve, though single readings scatter; tested in HEK293 cells; also: % is scaled to controls: 0 for no effect and ±100 for the full control effect; nearly all actives have a fitted effect of over 50% in size; luciferase read-out
* = called active by the depositor; & = joins results of further samples; [ ] = dose if it differs, or a comment. Unless noted, calls follow the shape of the dose curve; as a rule, active = well fitted curve in the direction sought with a large enough effect; inconclusive = small, poorly fitted or top-dose-only effect, or another doubt; inactive = no such curve, though single readings can be large; an effect the other way counts as inactive or inconclusive. Potency is read from the fitted curve at half-maximal effect.

CCCc1nnc(NC(=O)Cc2coc3cc(C)cc(C)c23)s1 was read as Cruzain inh Det -2.2%, Cruzain inh noDet -5%, MARV entry inh -4%[46.1 µM], 2A StopGo -12% and LASV entry inh 0%[46.1 µM].
Screening CCOC(=O)C(CC)n1cnc2c(nnn2-c2ccc(F)cc2)c1=O (stereo not given) returned NS1 function inh -10%, SARS PLP yeast 2%, RE007 growth inh 4% and 2A StopGo -2%.
O=c1[nH]c(CN2CCN(c3ccccc3O)CC2)nc2scc(-c3ccccc3Cl)c12 was read as NS1 function inh 4%, SARS PLP yeast -2%, RE007 growth inh 0% and 2A StopGo inconclusive.
`C=CCn1cc(C(=O)OCC)c(=O)c2cc(F)c(F)cc21` gave NS1 function inh 2%, MARV entry inh -10%, SARS PLP yeast 1%, RE007 growth inh -15%, 2A StopGo 1% and LASV entry inh 9%.
CCOc1ccc(NC(=O)CSc2nnc(-c3ccncc3)n2-c2ccccc2)cc1 was read as Cruzain inh Det 4.0%, Cruzain inh noDet 5%, 2A StopGo -1% and LASV entry inh 7%[46.1 µM].
Screening CCc1nnc(SCC(=O)Nc2cc(Cl)c(OC)cc2OC)c2cc3oc(C)cc3n12 returned Cruzain inh Det -0.9%, Cruzain inh noDet -16%, 2A StopGo -19% and LASV entry inh inconclusive.
For O=C(NCc1cccnc1)c1ccc(-c2cc(Cl)ccc2Cl)o1 the results were NS1 function inh -9%, MARV entry inh inconclusive, SARS PLP yeast -3%, RE007 growth inh -16%, 2A StopGo 0% and LASV entry inh inconclusive.
For Fc1ccc(NCc2ccccc2-c2nnc(-c3ccccc3Cl)o2)cc1Cl the results were Cruzain inh Det -2.0%, Cruzain inh noDet 12%, MARV entry inh inconclusive, 2A StopGo 19% and LASV entry inh 1%[46.1 µM].
Screening CCOC(=O)N1CCN(Cc2oc(CO)cc(=O)c2O)CC1 returned NS1 function inh -3%, Cruzain inh Det 1.0%, Cruzain inh noDet 1.6µM*, MARV entry inh 17%, SARS PLP yeast -4%, RE007 growth inh 8%, 2A StopGo 10% and LASV entry inh 12%.
`COc1ccc(-c2cc(C)no2)cc1S(=O)(=O)N1CCCC(C)C1` (stereo not given) gave Cruzain inh Det -4.3%, Cruzain inh noDet 15%, 2A StopGo 23% and LASV entry inh inconclusive.
`Cc1c(C(=O)O)oc2ccc(S(=O)(=O)N(CC(C)C)CC(C)C)cc12` gave NS1 function inh -2%, Cruzain inh Det -5.7%, Cruzain inh noDet inconclusive, MARV entry inh 10%, SARS PLP yeast -3%, RE007 growth inh -8%, 2A StopGo -13% and LASV entry inh -5%.
For Fc1ccc(-c2csc(=S)[nH]2)cc1 the results were NS1 function inh 5%, MARV entry inh 1%[46.1 µM], SARS PLP yeast 0%, RE007 growth inh 15%, 2A StopGo -5% and LASV entry inh inconclusive.
CNC(=O)CC(C(=O)O)c1ccc(OCC(C)C)cc1 (stereo not given) was read as NS1 function inh 6%, Cruzain inh Det 2.1%, Cruzain inh noDet -18%, MARV entry inh 12%, SARS PLP yeast 0%, RE007 growth inh -26%, 2A StopGo -3% and LASV entry inh inconclusive.
`CCN(CC)c1ccc(C(=O)OCC(=O)NC2CCCCC2C)cc1` (stereo not given) gave NS1 function inh 6%, Cruzain inh Det -1.8%, Cruzain inh noDet -3%, MARV entry inh -3%[46.1 µM], SARS PLP yeast 8%, RE007 growth inh 5%, 2A StopGo -21% and LASV entry inh -21%.
CCN(Cc1ccncc1)C(=O)CSc1ccc2ccccc2c1 was read as MARV entry inh -9%[46.1 µM], SARS PLP yeast 0%, RE007 growth inh -13%, 2A StopGo -11% and LASV entry inh -24%[46.1 µM].
For Cc1ccc(OCCC(=O)OCC(=O)Nc2cc(C)nn2-c2ccccc2)cc1 the results were NS1 function inh -21%, MARV entry inh 24%[46.1 µM], SARS PLP yeast -1%, RE007 growth inh 7%, 2A StopGo -17% and LASV entry inh 5%[46.1 µM].
`Cc1cc(-c2nc3ccccc3s2)ccc1NC(=O)c1cc(Cl)ccc1Cl` gave Cruzain inh Det -0.5%, Cruzain inh noDet 13%, MARV entry inh 1%[46.1 µM], 2A StopGo 40%[activator] and LASV entry inh 0%[46.1 µM].
`CCOC(=O)c1sc(NC(=O)/C=C/c2cnn(CC)c2C)c(C(=O)OCC)c1C` gave NS1 function inh 12%, Cruzain inh Det -2.1%, Cruzain inh noDet inconclusive, MARV entry inh inconclusive, SARS PLP yeast 2%, RE007 growth inh 13%, 2A StopGo -22% and LASV entry inh inconclusive.
Screening COc1ccc(-c2cc(C#N)nc(Oc3ccc(Cl)cc3)n2)cc1 returned NS1 function inh 1%, Cruzain inh Det 28µM*, Cruzain inh noDet 25µM*, SARS PLP yeast 13%, RE007 growth inh 3% and 2A StopGo -27%.
Screening COc1ccc(C2C(C(=O)Nc3ccc4c(c3)OCCO4)c3ccccc3C(=O)N2C)cc1 (stereo not given) returned NS1 function inh -4%, Cruzain inh Det -0.2%, Cruzain inh noDet 3%, MARV entry inh -20%, SARS PLP yeast -2%, RE007 growth inh 8%, 2A StopGo -22% and LASV entry inh 2%.
CCOc1ccc(NC(=O)CN(C)Cc2cc(=O)n3c(-c4ccccc4)csc3n2)cc1OCC was read as MARV entry inh 2%[46.1 µM], SARS PLP yeast 1%, RE007 growth inh 3%, 2A StopGo -18% and LASV entry inh -3%.
`Cc1cccc(NC(=S)NC2CC3C=CC2C3)c1` (stereo not given) gave NS1 function inh -33%, MARV entry inh -6%[46.1 µM], SARS PLP yeast 6%, RE007 growth inh 5%, 2A StopGo 35%[activator] and LASV entry inh -14%.
Screening COCc1cc(C)nc(SCC(=O)NC2CCCCC2C)c1C#N (stereo not given) returned NS1 function inh 18%, MARV entry inh 4%, SARS PLP yeast -7%, RE007 growth inh -24%, 2A StopGo -20% and LASV entry inh -2%.
Cc1ccc(O)c(-c2cc(-c3ccccc3C)[nH]n2)c1 was read as NS1 function inh -147%, Cruzain inh Det -17%, Cruzain inh noDet -8%, MARV entry inh inconclusive, SARS PLP yeast -34%, RE007 growth inh inconclusive, 2A StopGo 27% and LASV entry inh inconclusive.
For CCOC(=O)CC(NC(=O)c1cc2c(=O)n3cccc(C)c3nc2s1)c1ccc(OCC(C)C)c(OC)c1 (stereo not given) the results were Cruzain inh Det inconclusive, Cruzain inh noDet -7%, MARV entry inh -1%[46.1 µM], 2A StopGo -4% and LASV entry inh 1%[46.1 µM].
For O=C1OC(Cc2ccccn2)C(=O)C1=C1SCCS1 (stereo not given) the results were NS1 function inh 16%, Cruzain inh Det -8.5%, Cruzain inh noDet 1%, MARV entry inh 26%, SARS PLP yeast 13%, RE007 growth inh 8%, 2A StopGo 19% and LASV entry inh 5%.
For CCc1nnc(NC(=O)C(NS(=O)(=O)c2ccc3c(c2)OCCO3)C(C)C)s1 (stereo not given) the results were NS1 function inh 7%, Cruzain inh Det 4.0%, Cruzain inh noDet 3%, MARV entry inh -4%, SARS PLP yeast 1%, RE007 growth inh 16%, 2A StopGo -9% and LASV entry inh 10%.
Screening CCc1ccc(-c2nc(SCC(=O)N(CC)C3CCS(=O)(=O)C3)n[nH]2)cc1 (stereo not given) returned MARV entry inh 2%, SARS PLP yeast -5%, RE007 growth inh 4%, 2A StopGo 19% and LASV entry inh inconclusive.
`O=C1OCCN1C(=O)[C@H]1[C@H](c2ccc([N+](=O)[O-])cc2)C(c2ccccc2)=NN1c1ccc(Br)cc1` gave Cruzain inh Det -3.2%, Cruzain inh noDet 14µM*, SARS PLP yeast 30%, RE007 growth inh 11% and 2A StopGo -4%.
CCc1cccc(NS(=O)(=O)c2ccc3c(c2)n(C)c(=O)n3C)c1 was read as NS1 function inh 0%, MARV entry inh inconclusive, SARS PLP yeast -1%, RE007 growth inh 0%, 2A StopGo -10% and LASV entry inh inconclusive.
Cc1ccc(-n2c(=O)c3c4c(sc3n(Cc3cc(=O)n5ccccc5n3)c2=O)CCC4)cc1C was read as NS1 function inh 13%, Cruzain inh Det -1.4%&-8.8%, Cruzain inh noDet 4%, MARV entry inh -2%[46.1 µM], SARS PLP yeast -15%, RE007 growth inh -21%, 2A StopGo -17%&-5% and LASV entry inh 4%[46.1 µM].
`O=C(NCc1ccc(F)cc1)N1CCN(S(=O)(=O)c2ccccc2F)CC1` gave NS1 function inh -10%, MARV entry inh -2%, SARS PLP yeast 2%, RE007 growth inh -10%, 2A StopGo 7% and LASV entry inh 18%.
COc1ccc(CN2CCCCC2c2cccnc2)cc1C (stereo not given) was read as NS1 function inh -3%, Cruzain inh Det 0.0%, Cruzain inh noDet -2%, MARV entry inh -26%, SARS PLP yeast -2%, RE007 growth inh -15% and LASV entry inh -31%.
Cc1ccc(-c2csc(NC(=O)c3ccc(Br)cc3)c2C(=O)O)cc1 was read as NS1 function inh -1%, MARV entry inh 1.3µM*, SARS PLP yeast -1%, RE007 growth inh 1%, 2A StopGo 8% and LASV entry inh inconclusive.
Screening O=C(NNc1nc2c(F)cccc2s1)C1=COCCO1 returned MARV entry inh 20%, SARS PLP yeast 0%, RE007 growth inh 0%, 2A StopGo 11% and LASV entry inh -6%.
Screening Cc1cc(Cl)ccc1OCCNC(=S)NC(=O)c1cccnc1 returned NS1 function inh 11%, MARV entry inh 0%, SARS PLP yeast -1%, RE007 growth inh 9%, 2A StopGo -2% and LASV entry inh 5%.
Screening Cc1ccccc1S(=O)(=O)Nc1nc2ccccc2nc1N1CCc2ccccc2C1 returned NS1 function inh 18µM*, Cruzain inh Det -8.1%, Cruzain inh noDet inconclusive, MARV entry inh -22%, SARS PLP yeast -18%, RE007 growth inh 5%, 2A StopGo 6% and LASV entry inh 9%.

Assay outcomes (PubChem BioAssay)
